Vif TR-FRET: inhibitors of Vif binding to APOBEC3G peptide, primary screen, biochemical, TR-FRET, GST-Vif 1-94, biotin-A3G peptide, dose response retest (AID 1117319). TR-FRET GST-Vif / biotin-A3G peptide binding; higher % means a stronger effect; test concentration not given here; strong numbers were not always called active. inhibition, %, or IC50 in µM where a hit was titrated. hit rate 0.57% among 260,000;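 active = above the screen mean plus three standard deviations and confirmed in dose response; inconclusive = results disagree or hit not tested in dose response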;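 note: Vif residues 1-94 fused to GST binding biotinylated APOBEC3G peptide 110-148; 0% = full assay without inhibitor and 100% = GST in place of GST-Vif; retest series ran down from 100 µM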
Ecoli growth: inhibitors of Escherichia coli growth; OD600, 23 h; stronger effect = lower value; OD600 absorbance (concentration not given with the values); hit rate 0.21% among 330,000; AID 1053175;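 active = OD600 absorbance below the run mean of sample wells minus 3.6 SD, in any replicate, cut at about 0.56 in these data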;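 note: stock transfer was 300 nL into about 60 µL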
LANA-H2B inh: blocks KSHV LANA binding to histone H2A/H2B. Q9QR71. cell-free LANA-H2A/H2B peptide, fluorescence polarization. inhibition, % (test concentration not listed). hit rate 0.6% among 320,000. AID 2629; in the data active = inhibition mostly above about 10%, no sharp cut-off; inactive = mostly below about 6.7%;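 note: stock transfer was 7.5 nL into about 10 µL; 0% = median of vehicle wells and 100% = median of positive control wells; one replicate is shown; the record names a cut of 25% in any replicate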
HNF4A DNA FP: change in binding of human HNF4 alpha to DNA. P41235. HNF4a-FITC DNA binding, fluorescence polarization, 1 h. activity change, % at 10 µM. hit rate 0.3% among 360,000; in the data active = activity change above about 30%, passing the limit was not always enough;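 note: controls were the assay level and a saturating level of protein; the project sought stronger binding though the title names inhibitors; some compounds called inactive have numbers as strong as hits; positive values seem to mean higher polarization but the record does not say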
Target sequence (P41235 whole entry, looked up): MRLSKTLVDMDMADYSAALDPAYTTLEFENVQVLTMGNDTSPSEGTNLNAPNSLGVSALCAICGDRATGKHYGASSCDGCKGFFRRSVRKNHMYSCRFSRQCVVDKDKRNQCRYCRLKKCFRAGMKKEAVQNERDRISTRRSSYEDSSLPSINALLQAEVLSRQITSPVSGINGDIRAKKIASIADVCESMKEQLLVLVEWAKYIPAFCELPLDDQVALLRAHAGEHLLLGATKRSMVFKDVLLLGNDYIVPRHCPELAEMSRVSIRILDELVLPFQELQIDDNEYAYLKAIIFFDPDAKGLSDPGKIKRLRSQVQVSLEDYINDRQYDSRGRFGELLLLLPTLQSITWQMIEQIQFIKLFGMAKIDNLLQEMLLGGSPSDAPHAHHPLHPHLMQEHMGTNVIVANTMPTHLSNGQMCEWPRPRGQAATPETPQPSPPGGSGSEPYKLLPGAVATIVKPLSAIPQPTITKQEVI
Beta2AR agonist: human beta-2 adrenergic receptor agonism by FAP | P07550 | AID 504454 | response, % (test concentration not listed) | hit rate 0.43% among 340,000 | Am2.2-beta2AR cells, FAP receptor internalization, flow cytometry; reference of the scale not given here;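 active = response above a set limit, near 3 SD of response in nonfluorescent compounds, cut at about 42% in these data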;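 note: stock transfer was 100 nL into about 11 µL; a reference agonist was the positive control; negative values mostly stem from fluorescent compounds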
Target sequence (P07550 whole entry, looked up): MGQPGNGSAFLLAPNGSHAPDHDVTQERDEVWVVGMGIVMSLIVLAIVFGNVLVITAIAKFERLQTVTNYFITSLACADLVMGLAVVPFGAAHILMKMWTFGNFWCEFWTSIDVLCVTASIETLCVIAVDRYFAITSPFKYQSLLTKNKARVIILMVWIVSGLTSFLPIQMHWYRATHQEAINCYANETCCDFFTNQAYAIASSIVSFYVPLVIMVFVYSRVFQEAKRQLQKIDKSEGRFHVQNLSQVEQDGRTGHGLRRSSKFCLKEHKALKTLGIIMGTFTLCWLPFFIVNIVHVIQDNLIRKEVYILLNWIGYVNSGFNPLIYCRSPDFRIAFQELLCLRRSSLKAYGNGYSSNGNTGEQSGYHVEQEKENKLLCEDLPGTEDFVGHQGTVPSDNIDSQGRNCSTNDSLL
Bfl-1 A1 inh: inhibitors of the anti-apoptotic protein A1, read as caspase activation | MEF A1-2A-BIM cells, Caspase-Glo 3/7 luminescence, 3 h; percent of clofoctol response, vehicle zero | caspase activation, % (no concentration beside the values) | hit rate 0.066% among 330,000;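 active = over half of replicate activation scores above 10%, or exactly half above 10 with the replicate mean above 10; inconclusive = replicate mean below 10 yet half the replicates above 10; inactive = over half of replicates below 10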;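 note: wells of about 30 µL received 50 nL stock; many hits fall short of the cut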
UCH37 inh: human UCH37 deubiquitinating enzyme inhibition. Q9Y5K5. purified proteasome/UCH37, Ub-AMC cleavage fluorescence. inhibition, % (concentration not given with the values). hit rate 0.33% among 330,000. AID 588478;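 active = mean of two replicates above 20%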;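 note: 0% = compound-free wells with enzyme and 100% = wells lacking proteasome; stock transfer was 100 nL into about 20 µL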
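Material: Human UCH37 enzyme supplied as purified proteasome complex | Schedule: 30 min preincubation with enzyme, 25 min cleavage at room temperature | Detection: AMC fluorescence 355/460 nm | Measure: % inhibition of Ub-AMC cleavage fluorescence | Controls: Wells without proteasome as full block, compound-free enzyme plus substrate as uninhibited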
The depositor's hits bear a star; i = inactive; u = inconclusive; x = not tested or not shown; & = joins results of further samples. Compounds were not picked by outcome; overall some 2.1% were active at least once.

SMILES	Vif TR-FRET	Ecoli growth	LANA-H2B inh	HNF4A DNA FP	Beta2AR agonist	Bfl-1 A1 inh	UCH37 inh
O=C(COC(=O)c1ccccc1O)NCc1ccc2c(c1)OCO2	x	0.715	-2.2	3.4	-1.9	-1.0	-9.3
Cc1cccc(C(C)(C)C)c1OCCn1ccnc1	27.7%	0.659	-2.0	2.0	12.6	-0.8	0.3
NCCCCCc1nnc(SCc2ccc(Cl)cc2Cl)o1	8.5%	0.627	4.3	2.7	22.1	-0.1	4.5
COc1cccc(C(=O)N(Cc2cccs2)C2CCS(=O)(=O)C2)c1 (stereo not drawn)	8.9%	0.667	1.5	5.6	1.2	-0.1	1.4
O=C1NC(=O)C(c2ccc(Cl)cc2Cl)N1 (stereo not drawn)	-2.2%	0.686	x	-4.0	0.9	x	2.2
CCOC(=O)c1cc(CC)sc1/N=C/c1c(O)ccc2ccccc12	x	x	4.2	1.5	-8.9	0.0	x
Cn1nnc(NC(=S)NC(=O)c2ccco2)n1	x	0.609	1.5	-1.2	-4.8	0.0	3.5
Cc1nc2ccc3nc(NC(=O)C4COc5ccccc5O4)sc3c2s1 (stereo not drawn)	-12.8%	0.775	-1.5	-1.6	-4.3	0.3	-0.6
O=C(CSc1nnc(C2CC2)n1CC1CCCO1)Nc1ccccc1Cl (stereo not drawn)	0.7%	0.701	-3.2	3.5	1.6	0.2	-0.7
C=CCOc1c2ccc(C(=O)N(CC)c3ccc(OC)cc3)cc2nn1C	-1.0%	0.687	-3.9	11.8	-1.2	3.0	-25.3
Cc1c(C(=O)/C=C/N(C)C)nnn1-c1ccc(Cl)c(Cl)c1	-12.6%	0.661	4.4	-0.9	-2.9	-0.6	14.1
COc1cccc(CC(NC(C)=O)C(=O)NC2CCN(S(=O)(=O)c3ccc(NC(C)=O)cc3)CC2)c1OC (stereo not drawn)	x	0.668	-1.7	-0.8	6.5	-0.3	4.2
COc1ccc(/C=C\c2nc(O)c([N+](=O)[O-])c(=O)[nH]2)cc1O	3.4%	0.709	0.4	0.6	-2.4	-0.3	15.8
COc1ccc(NC(=O)COC(=O)c2ccccc2SCC(=O)N2CCCC2)cc1	0.7%	0.62	-1.4	3.5	-0.3	0.4	2.6
CCCCN1CC(C(=O)NCc2ccc(C)cc2)CC1=O (stereo not drawn)	5.2%	0.675	1.6	-1.6	10.2	0.0	0.2
CN(C)S(=O)(=O)c1ccc(Cl)c(C(=O)NCc2ccco2)c1	-1.5%	0.729	-1.6	0.4	-8.3	u	-1.1
Cc1ccc(S(=O)(=O)N2CCOCC2)cc1NC(=O)CNC1CCCC1	-1.0%	0.657	4.3	2.0	-5.3	0.3	0.5
CCOC(=O)c1sc(NC(=O)CCN2CCN(C)CC2)c(C(=O)OCC)c1C	-3.9%	0.696	x	0.9	22.5	-0.3	0.7
COC(=O)c1ccccc1NC(=O)c1ccc(-c2ccc(Br)cc2)o1	-4.2%	0.713	0.5	-2.1	-1.8	0.3	-42.1
CCN(NC(=O)C(O)(c1ccc(F)cc1)c1ccc(F)cc1)C(=O)c1ccccc1	20.4%	0.707	3.4	-0.4	7.8	0.8	0.0
Nc1nc(Br)c2c(F)cccc2c1-c1ccc(F)cc1	4.0%	0.754	-1.3	2.2	4.5	-0.3	-10.4
O=S(=O)(c1ccc(Br)cc1)N1CCC(c2nc3ccccc3[nH]2)CC1	-7.4%	0.713	2.1	-4.2	-4.2	-0.4	0.6
C#CCOCCOCCOCCNc1nc(N2CCN(C(=O)[C@H]([C@@H](C)CC)n3cc([C@@H](N)Cc4ccc(O)cc4)nn3)CC2)nc(N2CCN(C(=O)[C@H]([C@@H](C)CC)n3cc([C@@H](N)Cc4ccc(O)cc4)nn3)CC2)n1	-1.1%	x	3.7	0.9	0.4	0.7	-1.0
CCCCNS(=O)(=O)c1ccc(NC(=O)Cc2ccc(OC)cc2)cc1	-1.1%	0.616	5.8	3.8	-4.0	0.1	0.4
COC(=O)c1sc(S(=O)(=O)N2CCN(c3ccccc3F)CC2)c(C(=O)OC)c1C	2.6%	0.701	1.1	10.2	2.7	1.4	0.2
COc1ccccc1OCc1ccc(C(=O)N2CCN3CCCC3C2)cc1 (stereo not drawn)	11.8%	0.75	1.9	-0.7	3.5	-1.6	-2.7
Cc1cccc(C)c1NC(=S)N/N=C/c1ccc(C(=O)O)cc1	16.1%	x	1.9	0.4	3.5	-0.3	x
CCOP(=O)(OCC)C(C)(C)NC(=O)Nc1ccc(Cl)c(Cl)c1	-12.5%	0.621	-1.1	-1.8	1.1	0.4	2.5
O=C(Nc1cccc(Br)c1)c1ccc2snnc2c1	x	0.743	-3.6	-2.2	11.2	-2.0	0.0
O=C(COc1cccnc1[N+](=O)[O-])N1CCc2ccccc2C1	2.5%	0.689	10.4	1.5	-10.4	-0.3	1.4
Cc1ccnc(NC(=O)c2cc3cc(F)ccc3s2)c1	x	0.656	2.0	-1.1	-11.9	-3.8	6.2
O=C(NCC(=O)N(Cc1ccccc1)C(C(=O)NCC1CCCO1)c1ccccc1)c1cccs1 (stereo not drawn)	1.5%	0.697	-7.2	3.9	-5.9	0.2	2.5
CCC(=O)c1c(NCCc2ccccc2)cc(C)oc1=O	-6.6%	0.671	-4.2	-1.7	-9.2	0.0	3.2
COc1ccccc1/C=C1\SC(=S)N(CCC(=O)NNC(=O)c2ccccc2O)C1=O	-5.0%	0.751	-3.1	2.0	18.9	u	4.6
COc1ccc(/C=N/Nc2nonc2N)cc1OC	11.1%	x	0.7	-2.9	-4.1	-1.0	x
CCOC(=O)[C@@H]1[C@H]2COc3ccccc3[C@@H]2N2C(=O)N(c3cccc(Cl)c3)C(=O)[C@@]12C	x	x	6.0	-3.2	5.1	0.0	0.8
COc1ccc(C(=O)Nc2ccc(S(=O)(=O)N3CCCC3)cc2)cc1[N+](=O)[O-]	19.2%	0.722	0.2	2.4	12.9	0.1	2.9
Cc1ccc(S(=O)(=O)N2CCN(C(=O)CC(C)C)CC2)cc1	x	0.659	1.3	-0.2	-5.3	0.6	5.0
C=CCN1C(=O)c2ccccc2C1(O)Cc1ccccc1 (stereo not drawn)	-1.3%	0.7	0.5	-0.5	1.3	0.4	-2.4
O=C(COc1ccccc1)OCC(=O)c1ccc(S(=O)(=O)N2CCCCC2)cc1	-1.1%	0.68	x	3.6	3.9	-0.4	2.2
O=S(=O)(Nc1nc2ccccc2nc1N1CCN(c2ccccc2)CC1)c1ccc(F)cc1	10.6%	0.723	2.7	-10.8	2.3	0.2	3.9
CCOP(=O)(OCC)/C(=N/OC(=O)c1ccc(Cl)cc1Cl)C(N)=O	-0.4%	x	2.6	1.4	-5.9	-0.5	x
COc1ccc(NC(=O)Cn2nnc(C(=O)NCc3cccs3)c2N)c(OC)c1	3.4%	0.701	-3.4	-0.6	-6.1	1.0	2.5
Nc1c(C(=O)N2CCOCC2)oc2ccccc12	x	0.7	1.3	2.4	-10.4	-1.3	-6.4
Cc1cccc(NC(=O)CN2C(=O)N/C(=C/c3cc(C)n(-c4cccnc4)c3C)C2=O)c1	18.6%	0.676	11.2	4.8	15.8	-0.3	-5.0
CC(O)CN(Cc1ccc(Cl)cc1)CC(C)O (stereo not drawn)	-0.1%	0.668	-2.9	-0.8	2.4	0.8	4.0
CCn1nc(C(=O)N2CCc3ccccc32)c2ccccc2c1=O	16.3%	0.703	-0.4	3.9	8.1	-1.0	3.1
CSCCC(NC(=O)c1cccc(S(=O)(=O)N2CCOCC2)c1)c1nc2ccccc2[nH]1 (stereo not drawn)	-16.6%	0.615	-0.7	0.4	-7.7	0.4	-0.1
CCCn1c(-c2ccc[nH]c2=O)nc2cc(C)c(C)cc21	-8.6%	0.634	-2.1	-0.1	-0.2	0.9	-449.0
COc1ccc(C(CNC(=O)c2cccc(S(=O)(=O)Nc3ccc(F)cc3)c2)N2CCOCC2)cc1 (stereo not drawn)	x	0.611	x	-6.5	6.3	x	-0.3
COc1ccccc1CN1C(=O)[C@@H]2Cc3c([nH]c4ccccc34)C(C)(C)N2C1=O	x	x	-2.4	-5.7	1.5	1.2	1.5
Cc1cccc(NC(=O)CCN2CCN(C)CC2)c1	6.7%	0.652	0.7	-1.5	-3.5	2.0	-2.4
COC(=O)c1cc(NC(=O)CC2C(=O)NCCN2C(=O)c2ccc(F)cc2)cc(C(=O)OC)c1 (stereo not drawn)	-0.6%	0.668	-0.8	2.0	2.9	0.4	4.3
CCOc1ccc(CCNC(=O)Cn2nc(C)n3cccc3c2=O)cc1OCC	x	0.705	-7.0	1.3	4.4	0.4	0.6
Cc1oc(S(=O)(=O)N2CCOCC2)cc1C(=O)Nc1ccc(F)cc1	-2.3%	0.667	4.0	0.2	-6.3	-2.1	5.2
Cc1cc(C)n(C(=O)C2CCCN2S(=O)(=O)c2ccc(Cl)cc2)n1 (stereo not drawn)	u	0.667	-1.8	-2.4	2.2	-1.0	3.1
Cc1ccc(CNC(=O)c2ccc(N3CCC4(CC3)CC(c3cccc(Br)c3)=NO4)c(NC(=O)c3ccccc3)c2)cc1	x	0.722	1.5	-0.7	-1.2	1.1	0.9
CCOC(=O)N1CCN(C(=O)CCCn2c(=S)[nH]c3ccccc3c2=O)CC1	8.5%	0.709	0.7	-0.7	-22.6	-0.6	0.8
CC(C)CC(=O)C(=O)O	x	0.66&0.695	3.3&-6.0	1.5&4.1	-3.0&-2.7	-0.2&-0.1	0.2&0.2
O=C(CN1C(=O)C2CCCCC2C1=O)Nc1cc(C(F)(F)F)ccc1N1CCCC1 (stereo not drawn)	4.5%	0.693	5.7	1.2	0.8	0.0	4.5

Grouped by structure, those above containing a COOH group (2)
SMILES	Vif TR-FRET	Ecoli growth	LANA-H2B inh	HNF4A DNA FP	Beta2AR agonist	Bfl-1 A1 inh	UCH37 inh
Cc1cccc(C)c1NC(=S)N/N=C/c1ccc(C(=O)O)cc1	16.1%	x	1.9	0.4	3.5	-0.3	x
CC(C)CC(=O)C(=O)O	x	0.66&0.695	3.3&-6.0	1.5&4.1	-3.0&-2.7	-0.2&-0.1	0.2&0.2

(next part)
SMILES	Vif TR-FRET	Ecoli growth	LANA-H2B inh	HNF4A DNA FP	Beta2AR agonist	Bfl-1 A1 inh	UCH37 inh
Cc1ccccc1-c1c(C)oc2cc(O)ccc2c1=O	-0.9%	0.695	0.2	3.9	2.1	0.5	i
O=C(CC1C(=O)NCCN1Cc1ccc(F)cc1)NCCN1CCCc2ccccc21 (stereo not drawn)	97.4µM*	0.742	-1.2	-1.3	3.0	0.4	4.9
O=C(Oc1ccc(Cl)cc1)c1ccc(COC(=O)c2cnccn2)cc1	1.3%	0.671	2.8	1.2	3.8	-2.5	2.5
CCCCc1ccc(NC(=S)N2CCN(c3ccccn3)CC2)cc1	x	0.699	-7.3	0.2	1.4	-0.8	0.2
CCOC(=O)C1(CCCc2ccccc2)CCN(C(=O)C2CCCN(C(N)=O)C2)CC1 (stereo not drawn)	-3.8%	0.698	-5.3	0.2	-2.9	-0.2	6.6
O=C(c1ccccc1)N1CCN(S(=O)(=O)N2CCCCCC2)CC1	x	0.702	-0.5	-1.9	2.5	0.5	5.4
NC(N)=Nc1nc2ccccc2o1	-4.8%	0.65	0.5	-1.2	7.7	-0.2	5.5
COc1ccc(N(Cc2cc3ccccc3[nH]c2=O)S(=O)(=O)c2ccccc2)cc1	1.1%	0.728	7.0	-0.3	-17.8	-0.2	5.6
Cc1ccc(-n2nc(C)c3c(C)c(CCC(=O)O)c(C)nc32)cc1	36.5%	0.72	-2.4	1.8	9.2	-0.2	-78.8
c1ccc(OCc2nn3c(C4CCCCC4)nnc3s2)cc1	1.5%	0.642	-6.1	-4.6	-1.0	-0.2	0.0
